Assay outcomes: PubChem BioAssay, Broad Institute
NOMO-1 viab: STK33 inhibitor candidate reducing NOMO-1 cell viability. NOMO-1 AML viability, CellTiter-Glo luminescence, 72 h. inhibition, % (no concentration beside the values). actives 7.5% (n = 37,000). AID 2330;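 active = most replicates above 80%; inconclusive = exactly half above 80%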;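 also: wells of about 30 µL received 25 nL stock; 0% = median of vehicle wells and 100% = reference inhibitor level; the first replicate is given; inactives centre near 10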
* marks the source's active call; other numbers are inactive results; ? = inconclusive. These rows are one share of the data; count on the stated rates, not on these rows.

SMILES	NOMO-1 viab
Cc1ccc(S(=O)(=O)Nc2cccc3c2O[C@@H](CN(C)C(=O)Nc2ccc(F)cc2)[C@@H](C)CN([C@@H](C)CO)C3=O)cc1	31
C[C@H]1CN([C@@H](C)CO)C(=O)c2cc(NC(=O)Nc3ccc(C(F)(F)F)cc3)ccc2O[C@H]1CN(C)S(=O)(=O)c1cccs1	62
Cc1ccc(S(=O)(=O)Nc2cccc3c2O[C@H](CN(C)Cc2ccncc2)[C@@H](C)CN([C@@H](C)CO)C3=O)cc1	11
COc1ccc(S(=O)(=O)Nc2ccc3c(c2)C(=O)N([C@@H](C)CO)C[C@H](C)[C@H](CN(C)C(=O)Nc2ccc4c(c2)OCO4)O3)cc1	-19
Cc1noc(C)c1NC(=O)N(C)C[C@H]1Oc2c(NC(=O)NC(C)C)cccc2C(=O)N([C@@H](C)CO)C[C@@H]1C	26
O=C(CN1C(=O)c2cccc3cccc1c23)Nc1ccc(S(=O)(=O)N2CCCC2)cc1	12
COc1ccc(NC(=O)Nc2ccc3c(c2)C(=O)N([C@@H](C)CO)C[C@H](C)[C@H](CN(C)S(=O)(=O)c2ccc(F)cc2)O3)cc1	31
Cc1ccc(S(=O)(=O)N(C)CC(=O)Nc2ccc([N+](=O)[O-])cc2)cc1	6
CC(C)NC(=O)N(C)C[C@H]1Oc2c(NC(=O)c3cnccn3)cccc2C(=O)N([C@@H](C)CO)C[C@@H]1C	-12
Cc1noc(C)c1S(=O)(=O)Nc1cccc2c1O[C@@H](CN(C)C(=O)Nc1ccc3c(c1)OCO3)[C@@H](C)CN([C@H](C)CO)C2=O	13
Cc1c(C)c(C)c(CSc2ccccc2N)c(C)c1C	91*
Cc1ccc(NC(=O)COc2cc(C)c(Br)c(C)c2)c([N+](=O)[O-])c1	-9
O=C(CSc1nc2ccccc2s1)Nc1ccc(Cl)c(C(F)(F)F)c1	14
COc1ccccc1CCNC(=O)c1cc(-c2ccncc2)nc2c(C)c(Cl)ccc12	47
O=[N+]([O-])c1ccccc1/C=C/CN1CCN(CCO)CC1	4
C[C@@H]1CN([C@@H](C)CO)C(=O)c2cccc(NC(=O)c3ccc(-c4nccs4)cc3)c2O[C@H]1CN(C)C(=O)Nc1cccc2ccccc12	-10
COc1ccc(NC(=O)Nc2cccc3c2O[C@@H](CN(C)C(=O)Nc2cccc4ccccc24)[C@H](C)CN([C@H](C)CO)C3=O)cc1	10
COc1ccc(C(Nc2cc(C)ccn2)c2ccc3ccc(C)nc3c2O)cc1 (stereo unspecified)	99*
CC(C)NC(=O)Nc1ccc2c(c1)C(=O)N([C@@H](C)CO)C[C@H](C)[C@@H](CN(C)Cc1ccncc1)O2	16
COc1ccc(NC(=O)Nc2ccc3c(c2)C(=O)N([C@H](C)CO)C[C@@H](C)[C@H](CN(C)S(=O)(=O)c2cn(C)cn2)O3)cc1	-5
Cc1cccc(NC(c2ccccc2)c2ccc3ccc(C)nc3c2O)n1 (stereo unspecified)	102*
COc1ccc(-c2nnc(SCC(=O)Nc3cc(OC)ccc3OC)n2-c2ccccc2C)cc1	24
CC(C)NC(=O)Nc1ccc2c(c1)C(=O)N([C@H](C)CO)C[C@H](C)[C@H](CN(C)C(=O)Nc1ccc(C(F)(F)F)cc1)OCCCC[C@@H](C)O2	?
C[C@@H]1CN([C@H](C)CO)C(=O)c2cc(NC(=O)Cc3cn(C)c4ccccc34)ccc2O[C@H]1CN(C)C	2
Cc1ccc(-n2c(SCC(=O)OC(C)C)nnc2-c2ccco2)cc1	70
CC(C)NC(=O)Cn1ccc([N+](=O)[O-])n1	-12
C[C@@H]1CN([C@@H](C)CO)C(=O)c2cccc(NC(=O)c3nc4ccccc4s3)c2O[C@H]1CN(C)Cc1ccc(C(=O)O)cc1	6
Cc1cc(C(=O)Nc2cccc3c2O[C@@H](CN(C)C(=O)Nc2ccccc2)[C@H](C)CN([C@H](C)CO)C3=O)n(C)n1	13
C[C@H]1CN([C@@H](C)CO)C(=O)c2cccc(NC(=O)c3nc4ccccc4s3)c2O[C@@H]1CN(C)C(=O)Nc1ccc(F)cc1	11
C[C@H](CO)N1C[C@H](C)[C@H](CN(C)C(=O)Nc2ccc(F)cc2)Oc2ccc(NC(=O)CCN3CCOCC3)cc2C1=O	12

Sorted by count of non-hydrogen atoms (rising): four of the compounds above
SMILES	NOMO-1 viab
CC(C)NC(=O)Cn1ccc([N+](=O)[O-])n1	-12
C[C@H](CO)N1C[C@H](C)[C@H](CN(C)C(=O)Nc2ccc(F)cc2)Oc2ccc(NC(=O)CCN3CCOCC3)cc2C1=O	12
C[C@@H]1CN([C@@H](C)CO)C(=O)c2cccc(NC(=O)c3nc4ccccc4s3)c2O[C@H]1CN(C)Cc1ccc(C(=O)O)cc1	6
COc1ccc(NC(=O)Nc2cccc3c2O[C@@H](CN(C)C(=O)Nc2cccc4ccccc24)[C@H](C)CN([C@H](C)CO)C3=O)cc1	10

Carrying on.
SMILES	NOMO-1 viab
CCOC(=O)c1ccccc1NC(=O)C(C)Oc1ccc2c(C)cc(=O)oc2c1 (stereo unspecified)	104*
C[C@@H]1CN([C@@H](C)CO)C(=O)c2cc(NS(=O)(=O)c3ccccc3)ccc2O[C@@H]1CN(C)C(=O)Nc1cccc2ccccc12	26
C[C@H]1CN([C@@H](C)CO)C(=O)c2cccc(NC(=O)Nc3ccc4c(c3)OCO4)c2O[C@@H]1CN(C)Cc1ccc(Cl)c(Cl)c1	91*
C[C@H](CO)N1C[C@H](C)[C@H](CN(C)C(=O)Nc2ccc3c(c2)OCO3)Oc2c(NC(=O)c3ccc(-c4nccs4)cc3)cccc2C1=O	11
C[C@@H]1CN([C@@H](C)CO)C(=O)c2cccc(NS(=O)(=O)c3cn(C)cn3)c2O[C@@H]1CN(C)Cc1ccccc1	-7
Cc1ccc(S(=O)(=O)Nc2ccc3c(c2)C(=O)N([C@H](C)CO)C[C@H](C)[C@@H](CN(C)C(=O)NC(C)C)OCCCC[C@@H](C)O3)cc1	5
C[C@@H]1CN([C@@H](C)CO)C(=O)Cc2cc(NC(=O)Cc3cn(C)c4ccccc34)ccc2O[C@@H]1CN(C)S(=O)(=O)c1cn(C)cn1	-19
C=CCn1c(SCC(=O)c2ccccc2)nnc1-c1sc2nc(C)cc(C)c2c1N	6
CSc1nnc2c(n1)OC(C)Nc1ccccc1-2 (stereo unspecified)	-17
CC(C)C(NS(=O)(=O)c1ccccc1F)C(=O)O (stereo unspecified)	3
COCCN1C(=O)/C(=C/c2cn(CC(=O)OC)c3ccccc23)C(=O)N(c2ccccc2)C1=O	28
CNC[C@H]1Oc2c(NC(=O)NC3CCCCC3)cccc2C(=O)N([C@H](C)CO)C[C@H]1C	-3
Cc1ccc(S(=O)(=O)N(C)C[C@@H]2Oc3ccc(NS(=O)(=O)c4ccccc4)cc3C(=O)N([C@H](C)CO)C[C@@H]2C)cc1	11
Cc1noc(C)c1S(=O)(=O)N(C)C[C@H]1OCCCC[C@@H](C)Oc2ccc(NC(=O)c3ccccc3)cc2C(=O)N([C@H](C)CO)C[C@@H]1C	20
C[C@@H]1CCCCO[C@@H](CN(C)Cc2ccncc2)[C@@H](C)CN([C@H](C)CO)C(=O)c2cc(NS(=O)(=O)c3ccc(F)cc3)ccc2O1	-7
CC(=O)Nc1c(C(=O)O)oc2ccc(Br)cc12	9
O=C(NCCNc1ccc(C(F)(F)F)cc1[N+](=O)[O-])c1cccc(Br)c1	10
CCC(=O)Nc1ccc2nc(SCc3ccccc3C#N)sc2c1	-15
C[C@H]1CN([C@@H](C)CO)C(=O)c2cc(NC(=O)C3CC3)ccc2O[C@@H]1CN(C)Cc1ccc(C(=O)O)cc1	-8
C[C@@H]1CN([C@H](C)CO)C(=O)c2cc(NS(=O)(=O)c3cccs3)ccc2O[C@@H]1CN(C)S(=O)(=O)c1cn(C)cn1	0
COc1ccc(NC(=O)Nc2ccc3c(c2)C(=O)N([C@@H](C)CO)C[C@H](C)[C@@H](CN(C)S(=O)(=O)c2ccccc2)O3)cc1	10
C[C@H]1CN([C@@H](C)CO)C(=O)c2cc(NC(=O)CCC(F)(F)F)ccc2O[C@@H]1CN(C)C(=O)Nc1ccc(F)cc1	-15
Cc1ccc(S(=O)(=O)Nc2cccc3c2O[C@@H](CN(C)C(=O)Nc2ccc4c(c2)OCO4)[C@@H](C)CN([C@@H](C)CO)C3=O)cc1	14
C[C@@H]1CN([C@H](C)CO)C(=O)c2cc(NC(=O)NC3CCCCC3)ccc2O[C@H]1CN(C)S(=O)(=O)c1ccccc1	33
Cc1noc(C)c1NC(=O)Nc1ccc2c(c1)C(=O)N([C@H](C)CO)C[C@H](C)[C@H](CN(C)C(=O)C1CCCCC1)OCCCC[C@@H](C)O2	3
COC(=O)C[C@H]1C(C)(C)C2(O)OC34CC2C(=O)[C@]1(C)C3CC[C@]1(C)C4=CC(=O)O[C@H]1c1ccoc1 (stereo partly specified)	19
Cc1noc(C)c1NC(=O)N(C)C[C@H]1Oc2c(NC(=O)Nc3ccc(F)cc3)cccc2C(=O)N([C@@H](C)CO)C[C@H]1C	-4
O=S(=O)(NCc1ccccn1)c1ccc(F)cc1	0
CNC(=O)CN(c1cccc(Br)c1)S(C)(=O)=O	-19
C[C@H](CO)N1C[C@H](C)[C@@H](CN(C)S(C)(=O)=O)Oc2c(cccc2N(C)C)C1=O	9
Cc1noc(C)c1S(=O)(=O)Nc1ccc2c(c1)C(=O)N([C@@H](C)CO)C[C@@H](C)[C@H](CN(C)Cc1ccncc1)O2	8
C[C@H]1CN([C@@H](C)CO)C(=O)c2cc(NC(=O)Nc3cccc4ccccc34)ccc2O[C@@H]1CN(C)Cc1ccncc1	7
COc1ccc(S(=O)(=O)N(C)C[C@@H]2Oc3ccc(N(C)C)cc3C(=O)N([C@@H](C)CO)C[C@H]2C)cc1	-4
COC(=O)c1ccccc1NC(=O)CNS(=O)(=O)c1c(C)cc(C)cc1C	7
Cc1ccc(S(=O)(=O)N(C)C[C@H]2Oc3ccc(NC(=O)CCCCCC(=O)Nc4ccccc4N)cc3C(=O)N([C@@H](C)CO)C[C@H]2C)cc1	-18
C[C@H]1CN([C@@H](C)CO)C(=O)c2cccc(NC(=O)Nc3ccccc3)c2O[C@@H]1CN(C)Cc1ccc(C(=O)Nc2ccccc2N)cc1	127*
CC(C)NC(=O)Nc1ccc2c(c1)CC(=O)N([C@H](C)CO)C[C@H](C)[C@H](CN(C)S(C)(=O)=O)O2	4
COc1ccc(NC(=O)N(C)C[C@@H]2Oc3ccc(NS(=O)(=O)c4ccc(F)cc4)cc3CC(=O)N([C@H](C)CO)C[C@H]2C)cc1	5
C[C@@H]1CN([C@H](C)CO)C(=O)c2cccc(NC(=O)Nc3ccc4c(c3)OCO4)c2O[C@@H]1CN(C)C	18
C[C@@H]1CCCCO[C@@H](CN(C)Cc2ccc(C(=O)Nc3ccccc3N)cc2)[C@@H](C)CN([C@H](C)CO)C(=O)c2cc(NS(=O)(=O)c3cn(C)cn3)ccc2O1	19
COc1ccc(C(=O)CSc2nc(N)nc(SC)c2C#N)cc1	10
COc1cc(OC)c(NC(=O)CSc2nnc(-c3ccccc3)n2C)cc1Cl	25
Cc1cc(C)c(NC(=O)CN(c2cc(C(F)(F)F)ccc2Cl)S(C)(=O)=O)c(C)c1	20
C[C@@H]1CN([C@H](C)CO)C(=O)c2cccc(NC(=O)c3cnccn3)c2O[C@H]1CN(C)C(=O)NC1CCCCC1	22
C[C@H]1CN([C@@H](C)CO)C(=O)c2cccc(NC(=O)CCCCCC(=O)Nc3ccccc3N)c2O[C@@H]1CN(C)S(=O)(=O)c1cn(C)cn1	6

As entered above.
NOMO-1 viab result of CC(C)NC(=O)Nc1ccc2c(c1)CC(=O)N([C@H](C)CO)C[C@H](C)[C@H](CN(C)S(C)(=O)=O)O2 stands at 4
NOMO-1 viab result of COc1ccc(C(=O)CSc2nc(N)nc(SC)c2C#N)cc1 stands at 10
NOMO-1 viab result of COC(=O)c1ccccc1NC(=O)CNS(=O)(=O)c1c(C)cc(C)cc1C stands at 7

(list continues)
SMILES	NOMO-1 viab
C[C@@H]1CN([C@@H](C)CO)C(=O)Cc2cc(N(C)C)ccc2O[C@@H]1CN(C)C(=O)NC1CCCCC1	-6
C[C@H](CO)N1C[C@H](C)[C@H](CN(C)C(=O)Nc2cccc3ccccc23)Oc2ccc(NC(=O)CCN3CCOCC3)cc2C1=O	32
Cc1ccc(S(=O)(=O)Nc2ccc3c(c2)CC(=O)N([C@H](C)CO)C[C@H](C)[C@H](CN(C)C(=O)Nc2c(C)noc2C)O3)cc1	23
O=C(CSc1nnc(-c2ccncc2)o1)Nc1ccc(F)cc1	-13
O=C(CSc1nnc(-c2ccc(Br)cc2)o1)c1ccc([N+](=O)[O-])cc1	17
C[C@@H]1CN([C@@H](C)CO)C(=O)Cc2cc(NS(C)(=O)=O)ccc2O[C@@H]1CN(C)S(=O)(=O)c1ccccc1	-1
Cc1ccc(Nc2nc(Oc3ccc(=O)[nH]n3)nc(N(C)C)n2)cc1	9
Cc1ccc(SC(C)C(=O)NCc2cccnc2)cc1 (stereo unspecified)	-5
Cc1ccc(C(=O)NCCCn2ccnc2)cn1	20
Cn1c(Cc2cccc3ccccc23)nnc1SCC(=O)N1CCc2ccccc21	40
C[C@H]1CN([C@@H](C)CO)C(=O)Cc2cc(NC(=O)NC3CCCCC3)ccc2O[C@@H]1CN(C)S(C)(=O)=O	-8
CNC[C@H]1Oc2ccc(NS(=O)(=O)c3ccccc3)cc2C(=O)N([C@@H](C)CO)C[C@H]1C	0

Given with bars between the fields: entries from further up
SMILES | NOMO-1 viab
C[C@H](CO)N1C[C@H](C)[C@@H](CN(C)S(C)(=O)=O)Oc2c(cccc2N(C)C)C1=O | 9
Cc1noc(C)c1S(=O)(=O)Nc1ccc2c(c1)C(=O)N([C@@H](C)CO)C[C@@H](C)[C@H](CN(C)Cc1ccncc1)O2 | 8
C[C@H]1CN([C@@H](C)CO)C(=O)c2cc(NC(=O)Nc3cccc4ccccc34)ccc2O[C@@H]1CN(C)Cc1ccncc1 | 7
